Screening data (PubChem BioAssay)
NPYLR7 agonist = activates Aedes aegypti NPYLR7 receptor | HEK293T NPYLR7/Galpha15, GCaMP6s calcium fluorescence | AID 1259423 | activation, % at 10 µM | hit rate 0.15% among 270,000; in the data active = activation above about 40%;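 note: 0% = vehicle and 100% = reference agonist at the receptor; some compounds past the cut are filed as inactive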
NPYLR7 agonist max-min = second read-out of NPYLR7 agonist, no call of its own (marks repeat the call); activation, %; measured here: Max-Min RFU normalised activation; some inactives read as strong as hits;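 span of the calcium signal over five minutes; 0% = vehicle and 100% = native peptide agonist; compound fluorescence can raise it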
* marks the source's active call; other numbers are inactive results; & = joins results of further samples. Only part of the results is shown; the hit share may differ from the screen's.

Molecule	NPYLR7 agonist	NPYLR7 agonist max-min
N=C1/C(=C/c2cccs2)C(=O)N=C2SC(Cc3ccccc3)=NN12	0	-1
CC1CCN(C(=O)[C@@H](C)NC(=O)OC(C)(C)C)C2CCCCC12 (stereo not given in full)	10	6
CCc1ccccc1NC(=O)C(=O)NCC(c1cccnc1)N1CCc2ccccc21 (stereo not given)	3	-2
Cc1ccc(-c2ccnc(NCCC(=O)Nc3nccs3)n2)c(C)n1	5	3
CC(C)CC1NC(=O)c2cnc(-c3ccc(S(C)(=O)=O)cc3)nc21 (stereo not given)	7	3
COCCNC(=S)Nc1c(C(=O)OC)sc2c1CCC(C(C)(C)C)C2 (stereo not given)	3	12
COCCCOC1CN(C(=O)c2cc(Br)cc(Cl)c2O)C1	9	7
O=C(c1cccs1)N(CCN1CCCCC1)CC1CCCN(C2CCCC2)C1 (stereo not given)	5&0	6&-1
Cc1ccc(C(=O)Nc2ccccc2C(=O)O)cc1S(=O)(=O)NC1CCCCC1	-14	-22
Cc1c(C(=O)N2CCN(C(=O)C(c3ccccc3)c3ccccc3)CC2)cc(-c2ccccc2)n1-c1ccc(F)cc1F	9	13
CC(=O)Nc1ccc(Sc2ncccc2Cl)cc1	6	3
CCc1c(C)nc(-c2cccc(C)c2)nc1N1CCN(C(=O)COc2ccc(Cl)cc2)CC1	5	11
CCC(C)c1ccc(-n2c(-c3c(OC)ccc4ccccc34)nc3ccccc3c2=O)cc1 (stereo not given)	6	2
CCC1CN(C(=O)c2nn(C)c3c2CCCC3)CCC(=O)N1Cc1ccccc1 (stereo not given)	-2	-3
Cc1[nH]cnc1-c1nccn1Cc1ccccc1-n1ccnc1	15	6
CC(Sc1ccccc1)C(=O)NC(c1ccc(F)cc1)c1nccn1C (stereo not given)	-10	-13
O=C(CN1CCSC1=O)Nc1ccc2c(c1)OC1(CCCC1)O2	4	5
CC(C)CC(=O)N1Cc2ccccc2CC1C(=O)Nc1ccc(C#N)cc1 (stereo not given)	10	9
CCc1ccccc1C1c2cccn2CCCN1Cc1cccnc1 (stereo not given)	20	18
Cc1cc(-c2ccccc2)c2c(n1)sc1c(=O)n(CC(=O)Nc3ccc(Cl)cc3)cnc12	4	8
CCCn1c(CN2CCCCC2C)nc2cc(S(=O)(=O)N(C)C)ccc21 (stereo not given)	-1	25
COc1ccccc1N1CCN(C(=O)CN(c2ccc(C)cc2)S(=O)(=O)c2ccc(F)cc2)CC1	11	14
CCc1nc2ccc(C(=O)N(CC)CCN(C)C)cn2c1N(CC)Cc1ccc(OC)c(OC)c1	-4	9
COCc1cc(C)nc(N/N=C\c2cccc(Oc3ccc([N+](=O)[O-])cc3[N+](=O)[O-])c2)c1C#N	1	9
COc1ccc(NC(=O)N(Cc2nc(C(=O)NCc3ccc4c(c3)OCO4)cs2)C(C)C)cc1	-8	-1
CCc1oc2ccccc2c1-c1nccn1Cc1cnn(C)c1C	12	1
CN1CCN(C(CNS(=O)(=O)c2cccs2)c2ccc3c(c2)CCN3C)CC1 (stereo not given)	8	8
CCCCn1c(SCC(=O)Nc2cc(C)ccc2C)n[nH]c1=O	27	18
O=C(Nc1ccc(Nc2ccc(-n3cccn3)nn2)cc1)c1cccc(C(F)(F)F)c1	-7	-14
Cc1nc(Cl)cc(N(OC(=O)c2ccccc2)C(=O)c2ccccc2)n1	8	5
CC(CCn1cccn1)NCc1n[nH]c2c1CCCCC2 (stereo not given)	0	9
CCC(C(=O)Nc1nnc(SCc2ccccc2Cl)s1)c1ccccc1 (stereo not given)	28	34
CCN(Cc1ccc(Cl)s1)C(=O)Nc1ccc(F)cc1	0	1
C=CCN1C[C@@H]2C[C@@H](C(=O)OCC)N(C(=O)CCCCC)c3cccc(c32)C1=O	-6	-6
CC(C)(C)c1cc(=O)n2[nH]cc(-c3ccccc3Cl)c2n1	1	9
O=C(c1c(OCc2ccccn2)nn2ccsc12)N1CCC(CO)CC1	28	16
CCOc1ccc(-n2nnc3c(N4CCN(C(=O)c5ccc(C(C)(C)C)cc5)CC4)ncnc32)cc1	-4	-9
Cc1cc(C)cc(NC(=O)CC(=O)NCc2ccccc2)c1	3	3
CCCNC(=O)C1(C)CCCN(Cc2ccc3c(c2)OCO3)C1 (stereo not given)	10	3
CCOC(=O)c1nn(-c2ccc(F)cc2)cc1O	2	0
CCN(Cc1ncccc1C(=O)O)Cc1c(F)cccc1Cl	-1	2
Cc1ccc(COC2CCCN(C(=O)c3cccc(C(F)(F)F)c3)C2)cc1 (stereo not given)	4	2
CN(C)S(=O)(=O)c1ccc(C(=O)Nc2ccc(F)c(F)c2F)cc1	-3	-3
C=CCn1c(CCCO)nc2ccccc21	5	10
CCNC(=O)N(C)c1c(CC)nc2c(OCc3ccc(Cl)cc3Cl)cccn12	0	1
O=C(Nc1cc(Cl)ccc1Cl)c1noc2c1CCC2	-1	-1
CC(C)N1CCC1(C)C(=O)Nc1cccc(C#N)c1 (stereo not given)	-1	-2
O=C(C1COc2ccccc2C1)N1CC(=O)N(C2CCCCC2)CC(OCc2ccccn2)C1 (stereo not given)	23	9
Cc1ccc(-c2csc(/C=C/c3cccc(O)c3)n2)cc1	5	5
CSc1nc(=O)c2c(n1C)NC(=O)CC2c1cccc(C)c1 (stereo not given)	3	0
CCn1c(C2CCN(Cc3ccc(Cn4cccn4)cc3)CC2)n[nH]c1=O	-1	-3
N#C/C=C1\SCC(=O)N1CC(O)c1ccc(Cl)cc1 (stereo not given)	-1	-3
COc1ccc(CCCN2C(=O)O[C@@H]3CN(c4nc(C)cc(C)n4)C[C@@H]32)cc1	6	4
O=C(C1=C(O)C(=O)N(Cc2cccnc2)C1c1ccc(Cl)cc1)c1ccco1 (stereo not given)	-4	-4
O=C(NCc1n[nH]c2c1CCC2)c1cn(CCC2CCCCC2)nn1	-4	-6
O=C(CN1C(=O)c2cccc([N+](=O)[O-])c2C1=O)Nc1ccc(Cl)cc1	-6	-12
O=C(Nc1cc(-c2onc3c2CCCC3)ccc1Cl)C(F)(F)C(F)(F)C(F)(F)F	23	33
CC(=O)OC(C)(C)C(=O)N1CCN(c2nc3nccc(-c4cc(Cl)ccc4Cl)n3n2)CC1	2	-1
Cc1onc(-c2ccccc2Cl)c1C(=O)NCc1ccc2c(c1)OCO2	16	7
Cc1ccc2c(c1)c1c(n2C)CC[N+](C)(C)C1	-5	-5

New compounds follow.
Molecule	NPYLR7 agonist	NPYLR7 agonist max-min
CC(=O)c1ccc(NC(=O)Cn2ccn3nc(-c4ccc(C)cc4)cc3c2=O)cc1	5	3
Cc1ccccc1N1C(=O)C(Cc2ccccc2)S/C1=C(/C#N)C(N)=O (stereo not given)	-9	-14
C/C(=N/NC(=O)c1ccc(C)cc1)C(C)(C)C	1	7
O=c1cc(CNc2cccc(F)c2)nc2sc3c(n12)CCCC3	6	4

In the list so far, 17 contain a Cl atom.
Molecule	NPYLR7 agonist	NPYLR7 agonist max-min
COCCCOC1CN(C(=O)c2cc(Br)cc(Cl)c2O)C1	9	7
CC(=O)Nc1ccc(Sc2ncccc2Cl)cc1	6	3
CCc1c(C)nc(-c2cccc(C)c2)nc1N1CCN(C(=O)COc2ccc(Cl)cc2)CC1	5	11
Cc1cc(-c2ccccc2)c2c(n1)sc1c(=O)n(CC(=O)Nc3ccc(Cl)cc3)cnc12	4	8
Cc1nc(Cl)cc(N(OC(=O)c2ccccc2)C(=O)c2ccccc2)n1	8	5
CCC(C(=O)Nc1nnc(SCc2ccccc2Cl)s1)c1ccccc1 (stereo not given)	28	34
CCN(Cc1ccc(Cl)s1)C(=O)Nc1ccc(F)cc1	0	1
CC(C)(C)c1cc(=O)n2[nH]cc(-c3ccccc3Cl)c2n1	1	9
CCN(Cc1ncccc1C(=O)O)Cc1c(F)cccc1Cl	-1	2
CCNC(=O)N(C)c1c(CC)nc2c(OCc3ccc(Cl)cc3Cl)cccn12	0	1
O=C(Nc1cc(Cl)ccc1Cl)c1noc2c1CCC2	-1	-1
N#C/C=C1\SCC(=O)N1CC(O)c1ccc(Cl)cc1 (stereo not given)	-1	-3
O=C(C1=C(O)C(=O)N(Cc2cccnc2)C1c1ccc(Cl)cc1)c1ccco1 (stereo not given)	-4	-4
O=C(CN1C(=O)c2cccc([N+](=O)[O-])c2C1=O)Nc1ccc(Cl)cc1	-6	-12
O=C(Nc1cc(-c2onc3c2CCCC3)ccc1Cl)C(F)(F)C(F)(F)C(F)(F)F	23	33
CC(=O)OC(C)(C)C(=O)N1CCN(c2nc3nccc(-c4cc(Cl)ccc4Cl)n3n2)CC1	2	-1
Cc1onc(-c2ccccc2Cl)c1C(=O)NCc1ccc2c(c1)OCO2	16	7
